# ClpP mod – qHTS Assay for Activators of ClpP. purified B. subtilis ClpP, FRET peptide cleavage, 20 min. ATP-dependent Clp protease proteolytic subunit (Bacillus subtilis (strain 168)), P80244. Potency, µM (doses to about 57.5 µM), inactives show at the highest dose activity change, negative = active. hit rate 1.9% among 340,000; active = well fitted falling curve with a large enough effect; inconclusive = small, poorly fitted or top-dose-only effect; inactive = no such curve, though single readings can be large or run the other way; further: potency means the concentration at half of the fitted maximal effect; the source files actives as falling curves though it sought activators and does not explain the sign; nearly all actives have a fitted effect of over 65% in size; many hits overshoot -100%
# Target sequence (P80244 whole entry, looked up): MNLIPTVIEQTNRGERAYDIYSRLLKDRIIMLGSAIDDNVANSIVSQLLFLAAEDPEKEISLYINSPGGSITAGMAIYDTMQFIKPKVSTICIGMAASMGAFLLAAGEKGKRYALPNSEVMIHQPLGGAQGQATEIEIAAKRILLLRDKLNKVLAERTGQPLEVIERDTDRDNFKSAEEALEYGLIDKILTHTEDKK
#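 ClpP 10 microg/mL final, pH 8 Tris/KCl buffer with BSA, glycerol, Tween-20; compound pinned in; FRET-FV substrate; RT 20 min; Ex320/Em430; ΔFRET vs ADEP 5.8 microM, DMSO, no enzyme.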
# Menin-MLL FL inh – displaces fluorescein MLL peptide from human menin; Fluorescence polarization, fluorescein-MLL peptide displacement from menin; FP activity change, % at 61.4 µM; 290,000 tested, under 10 active; inconclusive = falling polarisation curve, or a change in total fluorescence; inactive = total fluorescence flat and polarisation flat or rising; no compound was filed as active; the % refers to the polarisation; negative = inhibition;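 further: % of control where 0% means no effect; inhibitors lower the polarisation; unlabelled MLL peptide was the positive control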
# TRPML1 ag – activates the human TRPML1 channel; TRPML1-expressing cells, Ca2+ dye fluorescence, FDSS; host cell line not named in the record; reference of the full effect not given here; Q9GZU1; hit rate 0.12% among 410,000; activation, % (no concentration beside the values); in the data active = activation above about 50%; inconclusive = about 30% to 50%; inactive = below about 30%; further: 0% is about no effect; the text of the record puts the active cut at 80%
#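 Calcium fluorescence on an FDSS kinetic reader gave the read-out. Tet-induced TRPML1-DL cells were plated overnight, dye-loaded (Ca8 with quencher, 45-90 min, room temperature, dark), then read 110 s after compound addition, and again 110 s after 4uM final 54-4 (EC80).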
# TRPML1 inh – human mucolipin-1 channel inhibition; AID 624415; TRPML1-inducible cells, Ca2+ dye fluorescence, FDSS; stronger effect = lower value; inhibition of EC80 agonist-evoked calcium signal; activity change, negative = inhibition, % (test concentration not listed); hit rate 0.02% among 390,000; Q9GZU1; in the data active means activity change below about -50%; inconclusive means about -30% to -50%; inactive means above about -30%;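 further: stimulus is agonist 54-4 at its EC80 concentration; on the % scale 0 is the no-effect control and ±100 the full control effect; compound concentration not given in the record; the text of the record puts the active cut at -80%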
#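 Calcium fluorescence in TRPML1-DL cells induced overnight with Tet: a 110 s read after compound pin addition, then a 110 s antagonist read after challenge with 54-4 at 4 uM final (EC80).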
# PINK1 modulator – changes PINK1 expression | PINK1 immunofluorescence, high-content cytometry, 24 h | Potency, µM (highest dose often 76.6 µM), without a hit: top-dose activation (PINK1 increase), hits mostly activators | hit rate 0.2% among 410,000 | AID 624263; active = well fitted activation curve with a large enough effect; inconclusive = small, poorly fitted or top-dose-only effect; inactive = flat fitted curve, though single readings scatter; cell line not stated here;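 further: potency means the concentration at half of the fitted maximal effect; % of control where 0% means no effect; nearly all actives have a fitted effect of over 65% in size; a mitochondrial uncoupler was the plate control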
#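 Readout is PINK1 immunofluorescence, quantified alongside mitochondrial, cell and nuclear markers by laser-scanning microplate cytometry. Cells from a stable line were exposed to compound titrations (5 concentrations) for 24 hours, with CCCP controls.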
# TRPV1 PAM – human TRPV1 potentiation | Q8NER1 | TRPV1-expressing cells, Fluo-8 calcium influx, capsaicin EC20 potentiation; host cell line not named in the record; control for the full effect not named in the record | potentiation, % at 8.33 µM | hit rate 0.02% among 320,000; active means potentiation above 80%; inconclusive means 30% to 80%; inactive means below 30%; further: 0% is about no effect
# Target sequence (Q8NER1 whole entry, looked up): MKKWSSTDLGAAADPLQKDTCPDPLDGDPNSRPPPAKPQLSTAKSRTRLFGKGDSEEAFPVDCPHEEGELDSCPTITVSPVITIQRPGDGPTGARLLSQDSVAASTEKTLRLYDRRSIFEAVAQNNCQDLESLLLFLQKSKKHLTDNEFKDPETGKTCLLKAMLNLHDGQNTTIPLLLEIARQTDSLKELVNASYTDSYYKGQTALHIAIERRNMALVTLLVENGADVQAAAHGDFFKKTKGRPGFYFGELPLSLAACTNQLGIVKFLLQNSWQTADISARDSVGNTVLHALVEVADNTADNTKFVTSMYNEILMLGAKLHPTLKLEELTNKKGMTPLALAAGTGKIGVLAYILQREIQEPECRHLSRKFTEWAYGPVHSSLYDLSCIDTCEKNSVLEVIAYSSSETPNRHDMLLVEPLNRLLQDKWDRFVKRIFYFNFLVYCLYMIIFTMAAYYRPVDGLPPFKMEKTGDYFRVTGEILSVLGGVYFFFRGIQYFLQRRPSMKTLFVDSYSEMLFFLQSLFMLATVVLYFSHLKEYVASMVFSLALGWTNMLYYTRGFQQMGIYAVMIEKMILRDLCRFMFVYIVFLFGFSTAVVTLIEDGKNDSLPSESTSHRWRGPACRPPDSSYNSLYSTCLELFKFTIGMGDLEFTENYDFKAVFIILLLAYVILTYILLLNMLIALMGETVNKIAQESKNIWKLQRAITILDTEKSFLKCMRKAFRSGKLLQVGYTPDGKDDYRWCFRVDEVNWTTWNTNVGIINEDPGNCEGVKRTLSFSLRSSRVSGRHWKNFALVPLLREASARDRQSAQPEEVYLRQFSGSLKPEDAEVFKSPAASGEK
#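 Cells expressing TRPV1 were dye-loaded with Fluo-8 and read kinetically: 10 s baseline, 3 min after compound (agonist portion), then 2 min after EC20 capsaicin (allosteric enhancer portion). Calcium-bound dye fluorescence at 480/520 nm.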
# Sfp PPTase inh – inhibitors of Bacillus subtilis Sfp phosphopantetheinyl transferase; Q9F4F7; Biochemical Sfp PPTase activity, qHTS; Potency, µM, without a hit: max response, negative = inhibition, hits mostly inhibitors; hit rate 3.5% among 310,000; active means well fitted inhibition curve with a large enough effect; inconclusive means small, poorly fitted or top-dose-only effect, or another doubt; inactive means no such curve, though single readings can be large or run the other way;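 further: the enzyme is Sfp with the accession as filed and its product quenches rhodamine fluorescence; potency means the concentration at half of the fitted maximal effect; 0% = enzyme reaction without inhibitor and -100% = no enzyme wells; top concentration of the series not given in the record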
#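 Buffer: 50 mM Hepes-Na pH 7.6, 10 mM MgCl2, 0.01% Nonidet P-40, 0.01% BSA. Enzyme 15 nM, pre-exposed to compound 15 min; substrates then added and fluorescence change tracked over 30 min.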
# Numbers without * were called inactive; ? = inconclusive; / = no result given; & = joins results of further samples; [ ] = dose if it differs, or a comment.
molecule	Menin-MLL FL inh	TRPML1 inh	PINK1 modulator	Sfp PPTase inh	ClpP mod	TRPV1 PAM	TRPML1 ag
CNC(=O)/C(C#N)=C1\SC(Cc2ccc(F)cc2)C(=O)N1c1ccccc1C (configuration not stated)	0.7	10	1.3%	17%	1.7%	14	0.1
CCOC(=O)c1cc(-c2ccccc2C)nn1Cc1cc(CC)no1	/	5	3.4%	/	0.2%	-18	1.4
CCNC(=O)NC1(C(=O)Nc2ccc3c(c2)CCC3)CCCCC1	0.1	-3	0.0%	6%	-1.0%	/	0.1
Cc1cc(C)c(C#N)c(SCc2cc3c(cc2Cl)OCO3)n1	-6.9	-5	/	?	-5.1%	-4	0.9
Cc1cncc(N2CCN(c3ccccn3)CC2)n1	/	/	-0.1%	/	-12%	/	-0.6
CCC(=O)N1c2ccccc2CC1C(=O)NCCN1CCN(c2ccccc2F)CC1 (configuration not stated)	/	-14	0.7%	/	-2.4%	/	0.8
CCN(CC)c1ccc(NC(=O)CSc2ccsc2[N+](=O)[O-])c(C)c1	7.9	13	5.8%	-27%	-1.4%	-22	-0.9
Cc1noc(C)c1-c1nc(N2CCNCC2)c2ccccc2n1	-6.6	/	-0.2%	12%	/	/	/
CC(C)c1nc(CN2CCCCC2)cc(=O)[nH]1	0.5	-6	-1.1%	16%	/	?	0.2
COc1cc(C)ccc1S(=O)(=O)NC(=O)C1(C)CCN1C(=O)c1ccc(C2CCCCC2)cc1 (configuration not stated)	/	/	-0.9%	/	1.1%	/	-0.8
O=c1c2c3c(sc2nc2n1N=C(c1cccs1)CS2)CCCC3	3.2	-2	2.1%	14%	-2.1%	4	-0.5
NC(=O)c1nnsc1-c1ccco1	/	-4	-2.2%	/	/	/	0.4
Oc1ccccc1/C=N/N1CCCCC1	1.9	-19	1.5%	0%	/	-4	1.0
COc1cccc(CC(=O)OCC(=O)NNC(=O)c2ccc(Br)cc2)c1	/	-9	3.5%	/	-0.8%	-5	-0.5
CCC1(CCC(C)C)SC(N)=NC1=O (configuration not stated)	/	5	1.5%	/	-4.3%	/	-0.4
CCN(CC)S(=O)(=O)c1ccc2c(c1)N(CC(=O)NCCCN1CCN(c3ccc(OC)cc3)CC1)C(=O)CO2	/	14	-0.4%	/	-1.6%	/	-0.4
COc1ccc(N/N=C2/CCCCC2=O)cc1	0.4	12	-2.7%[38.3 µM]	-23%	-1.7%	9	0.2
CCCOP(=O)(c1ccc(N(C)C)cc1)C(Nc1ccccc1)c1ccc(C)cc1 (configuration not stated)	0.3	8	6.3%	-4%	-1.2%	4	-0.1
COC(=O)N/N=C/C1=CCC2CC1C2(C)C (configuration not stated)	5.3	20	-1.0%	6%	/	3	-0.3
O=C(O)CSCC(=O)Nc1ccc(C(F)(F)F)cc1	0.1	-1	5.3%	-8%	/	17	-0.3
Cc1cc(NC(=O)CN2C(=O)CCSc3ccccc32)no1	1.7	-4	0.1%	8%	0.6%	10	0.0
Cc1cc2c(cc1S(=O)(=O)N1CCCCC1)OCC(=O)N2	0.0	36&12	5.5%&3.9%	8%	1.4%&-11%	-22	0.3&-0.3
CN(C)C(=O)N1CCCC(C(=O)NCc2ccc(F)cc2Cl)C1 (configuration not stated)	-1.0	2	/	-4%	1.1%	15	0.1
O=C(Nc1cccc(C(F)(F)F)c1)n1cc(-c2ccccn2)c(N2CCOCC2)n1	1.0	9	8.7%	19%	/	-3	2.1
Cc1cc(C)c(NC(=O)Cn2c(=O)n(Cc3ccc4c(c3)OCO4)c(=O)c3ccccc32)c(C)c1	/	-6	1.2%	/	-1.0%	/	-0.6
CCOc1ccccc1N(C)S(=O)(=O)c1ccc2c(c1)N(C(C)=O)CCO2	/	54	3.3%	13%	-1.9%	-18	-0.7
Cc1cccc(NC(=O)CN(C)S(=O)(=O)c2ccc3c(c2)CCC(=O)N3)c1C	/	24	0.5%	/	-0.8%	/	-1.1
CC1=CN2C(=NC(=O)CC2(C)C(=O)N(CC(=O)NC2CCCC2)Cc2ccccc2)C=C1 (configuration not stated)	-1.8	-11	3.7%	13%	-16%	3	-1.1
O=C(Cn1cnc2ccccc2c1=O)NC1CCCc2ccccc21 (configuration not stated)	4.1	22	-0.5%	3%	-2.1%	-5	-0.9
COC(=O)c1ccc2[nH]c(C3(O)CCCCC3)c(C)c2c1	/	-14	5.1%	/	-10%	/	1.7
CC(C)CC(=O)Nc1ccc(Nc2ccccc2)cc1	-0.9	25	-0.5%	3%	1.4%	15	0.1
CCNc1nc(NC(C)C)nc(Nn2cnnc2)n1	2.4	0	27%[38.3 µM]	15%	-0.3%	5	0.2
O=C(CCc1ccccc1)Nc1ccccc1C(=O)N1CCOCC1	0.6	15	-1.4%	15%	-4.0%	-2	2.8
Cc1c(-c2ccncc2)oc2ccc(Br)cc2c1=O	-0.2	/	/	11%	/	?	/
NC(=S)NC1CCS(=O)(=O)C1 (configuration not stated)	-3.3	10	-1.3%	15%	/	-2	0.0
COc1cc2c(cc1OC)-c1c(OC)c(OC)cc3ccnc(c13)C2=O	13&0.1	53	-0.7%	-4%&3%	0.7%	4	4.5
CCc1ccc2oc(-c3ccc(C)c(NC(=O)COc4ccccc4Cl)c3)nc2c1	/	/	0.6%	/	-15%	/	-0.4
CCCc1cc(=O)[nH]c(SCC(=O)N2CCN(c3ccccc3)CC2)n1	0.5	-3&34	-0.8%	1%	-10%&-0.1%	2	-0.6&1.2
O=C(NC(=S)N1CCN(c2ccccn2)CC1)c1ccccc1	3.6	-8	3.0%	-4%	-0.9%	2	0.1
COc1ccc(NC(=O)CC2Oc3ccccc3NC2=O)c(OC)c1 (configuration not stated)	0.8	27	11%	10%	/	17	-0.5
Cc1ccc(S(=O)(=O)NCCc2ccc(S(N)(=O)=O)cc2)cc1	1.0	-7	/	5%	1.6%	-4	-0.6
CCN1CCN(S(=O)(=O)Cc2ccccc2)CC1	2.3	-12	/	1%	-1.2%	-22	-0.2
Cc1ccc(NC(=O)C(=O)NCC2CCN(C(=O)c3cccc([N+](=O)[O-])c3)CC2)cc1	4.9	-16	-0.7%	4%	0.1%	-9	1.1
COc1ccc(-c2ccc3oc(-c4ccc(OC)cc4)c(-c4ccc(OC)cc4)c3c2)cc1	/	-6	5.7%	/	4.5%	/	0.1
CCOC(=O)c1nn(-c2ccccc2C)c(=O)cc1OCC(=O)Nc1cccc(OC)c1	/	-7	12%	/	0.1%	-2	3.4
CCC(C)NC(=O)CNC(=O)c1nn(-c2ccc(OC)cc2OC)c(=O)c2ccccc12 (configuration not stated)	-17	-6	2.6%	6%	0.1%	-2	0.7
CCOC(=O)C1CCN(C(=O)CCNS(=O)(=O)c2ccc3c(c2)CCN3C(=O)CC)CC1	-0.1	-7	-0.6%	12%	1.8%	11	-0.7
Cn1ccnc1SCC(=O)Nc1ccccc1	-0.7	-8	0.8%	12%	-0.2%	2	-0.1
CC(OC(=O)c1cc(S(=O)(=O)N2CCOCC2)ccc1F)C(=O)NCC1CCCCC1 (configuration not stated)	/	-16	0.0%	/	0.5%	/	-0.6
COCCN1Cc2cccc(C(=O)NC(C)c3cccs3)c2C1=O (configuration not stated)	-0.3	-12	-0.6%	12%	-4.7%	0	0.3
Cc1ccc(C(=O)c2ncc[nH]2)cc1	/	7	2.4%	/	-0.7%	-15	-0.7
CC(C)CC(NC(=O)C1CCCCC1)C(=O)NC(C)c1ccccc1 (configuration not stated)	-5.4	8	1.3%	3%	-1.4%	-21	-0.6
COCCN(CCOC)Cc1cc(=O)oc2cc(OC)c(Cl)cc12	/	23	1.0%	/	-26%	/	-0.1
COc1ccc(-c2nc(C)c(CCNC(=O)C(=O)Nc3c(C)cccc3C)s2)cc1OC	/	10	3.4%	/	3.7%	/	2.7
O=C(CSc1ccc(F)cc1)NNC(=O)c1ccccc1Br	-0.3	-1	2.8%	18%	/	7	-0.2
CCOc1ccccc1/C=N/Nc1ccccc1[N+](=O)[O-]	-0.4	2	8.2%	7%	-1.6%	1	-0.2
Cc1cc(O)c(C(C)C)cc1NS(=O)(=O)c1ccccc1	3.7	10	-0.8%	-10%	-1.8%	6	1.0
COc1ccc(C2CC(C)=C(C#N)S(=O)(=O)C2C#N)cc1 (configuration not stated)	?	23	-0.2%	-16%	-1.2%	5	1.2
CN=C(c1ccco1)n1c(=S)nc(-c2ccco2)n(C)c1=S	?	9	1.7%	18µM*	-1.3%	1	-0.2
Cc1cc(/C=C(\C#N)C(=O)Nc2ccc(F)cc2)c(C)n1-c1ccc(N2CCOCC2)c([N+](=O)[O-])c1	8.1	-2	?	16%	-1.0%	5	0.0

# By substructure: the compounds so far with bromine
molecule	Menin-MLL FL inh	TRPML1 inh	PINK1 modulator	Sfp PPTase inh	ClpP mod	TRPV1 PAM	TRPML1 ag
COc1cccc(CC(=O)OCC(=O)NNC(=O)c2ccc(Br)cc2)c1	/	-9	3.5%	/	-0.8%	-5	-0.5
Cc1c(-c2ccncc2)oc2ccc(Br)cc2c1=O	-0.2	/	/	11%	/	?	/
O=C(CSc1ccc(F)cc1)NNC(=O)c1ccccc1Br	-0.3	-1	2.8%	18%	/	7	-0.2

# Following part:
molecule	Menin-MLL FL inh	TRPML1 inh	PINK1 modulator	Sfp PPTase inh	ClpP mod	TRPV1 PAM	TRPML1 ag
CCS(=O)(=O)c1ccc2c(c1)NC(=O)C(CCCl)O2 (configuration not stated)	-2.3	17	1.4%	2%	-1.3%	-3	0.2
O=C(/C=C/c1cc([N+](=O)[O-])ccc1OC(F)F)NCc1ccc(F)cc1	-1.0	-6	0.0%	-9%	-6.8%	20	1.1
O=c1[nH]c(=S)[nH]c2nc[nH]c12	/	/	0.5%	/	-4.2%	/	-0.3
COC(=O)C1CSc2[nH]c(=O)sc2C1c1ccccc1 (configuration not stated)	?	-5	0.2%[38.3 µM]	45µM*	-0.6%	4	4.8

# Source: PubChem BioAssay (National Center for Advancing Translational Sciences (NCATS))

# The order is random; any-hit rate near 4.4%.
